gsp agonist – activates gsp, the McCune-Albright syndrome mutation | 340,000 compounds, 0.13% hits | gsp mutant cells, cAMP HTRF, 30 min; control for the full effect not named in the record | Potency, µM (titrated, usually from 76.9 µM), inactives show top-dose activation (cAMP increase), hits mostly activators; active = well fitted activation curve with a large enough effect; inconclusive = small, poorly fitted or top-dose-only effect, or another doubt; inactive = no such curve, though single readings can be large or run the other way; cell line not stated here;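 also: phosphodiesterase inhibitor Ro 20-1724 added with compounds to block cAMP breakdown; potency is read from the fitted curve at half-maximal effect; nearly all actives have a fitted effect of over 60% in size; about a fifth of the inactives were tested at one dose only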
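Cells in DMEM/10% FBS with G418 were pretreated with compounds in DMSO plus […] (300 uM stock) for 30 min at 37C. cAMP was measured by HTRF (cAMP-d2 plus anti-cAMP antibody-K) after 30 min at room temperature.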
Sfp PPTase inh – Sfp phosphopantetheinyl transferase inhibition; 310,000 compounds, 3.5% hits; Potency, µM, for the others: max response, negative = inhibition, hits mostly inhibitors; Q9F4F7; Biochemical Sfp PPTase activity, qHTS; active = well fitted inhibition curve with a large enough effect; inconclusive = small, poorly fitted or top-dose-only effect, or another doubt; inactive = no such curve, though single readings can be large or run the other way;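 also: the enzyme is Sfp with the accession as filed and its product quenches rhodamine fluorescence; potency is read from the fitted curve at half-maximal effect; 0% = enzyme reaction without inhibitor and -100% = no enzyme wells; top concentration of the series not given in the record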
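Sfp 15 nM + cpd, 15 min RT; start w/ rhodamine-CoA 5 uM, BHQ-2-YbbR 12.5 uM (final); 50 mM Hepes pH 7.6, 10 mM MgCl2, 0.01% NP-40, 0.01% BSA; read 525/598 nm at 0 and 30 min.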
ClpP mod – qHTS Assay for Activators of ClpP; 340,000 compounds, 1.9% hits; ATP-dependent Clp protease proteolytic subunit (Bacillus subtilis (strain 168)), P80244; Potency, µM (doses to about 57.5 µM), inactives show at the highest dose activity change, negative = active; purified B. subtilis ClpP, FRET peptide cleavage, 20 min; AID 651965, 2013; active = well fitted falling curve with a large enough effect; inconclusive = small, poorly fitted or top-dose-only effect; inactive = no such curve, though single readings can be large or run the other way; also: potency is read from the fitted curve at half-maximal effect; the source files actives as falling curves though it sought activators and does not explain the sign; nearly all actives have a fitted effect of over 65% in size; many hits overshoot -100%
Target sequence (P80244 whole entry, looked up): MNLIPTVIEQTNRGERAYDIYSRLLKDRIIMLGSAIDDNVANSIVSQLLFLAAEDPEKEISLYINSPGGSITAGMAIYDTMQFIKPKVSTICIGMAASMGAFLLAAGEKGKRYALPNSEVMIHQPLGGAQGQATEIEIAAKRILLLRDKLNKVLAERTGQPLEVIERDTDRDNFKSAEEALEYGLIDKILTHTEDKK
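Purified B. subtilis ClpP, 10 microg/mL final in Tris/HCl pH8 with KCl, BSA, glycerol and Tween-20, cleaved an Abz/nitrotyrosine-quenched decapeptide. Fluorescence (ex 320, em 430) was read at 0 and 20 min at room temperature. Delta was normalized to 5.8 microM ADEP and DMSO/no-enzyme controls.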
Menin MLL FP FL – inhibitors of human menin-MLL interaction, wild-type MLL peptide; 290,000 tested, under 10 active; FP activity change, % at 61.4 µM; Fluorescence polarization, fluorescein-MLL peptide displacement from menin; AID 1766; inconclusive = falling polarisation curve, or a change in total fluorescence; inactive = total fluorescence flat and polarisation flat or rising; no compound was filed as active; the % refers to the polarisation; negative = inhibition;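 also: % of control where 0% means no effect; inhibitors lower the polarisation; unlabelled MLL peptide was the positive control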
PINK1 expr mod – modulators of PINK1 expression | AID 624263 | 410,000 compounds, 0.2% hits | PINK1 immunofluorescence, high-content cytometry, 24 h | Potency, µM (series often up to 76.6 µM), inactives show top-dose activation (PINK1 increase), most hits filed as activators; active = well fitted activation curve with a large enough effect; inconclusive = small, poorly fitted or top-dose-only effect; inactive = flat fitted curve, though single readings scatter; cell line not stated here;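 also: potency is read from the fitted curve at half-maximal effect; % of control where 0% means no effect; nearly all actives have a fitted effect of over 65% in size; a mitochondrial uncoupler was the plate control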
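Decision-based qHTS: stable cells, 24 h exposure to five compound concentrations, CCCP as control. Fixed cells stained for PINK1 plus nuclear, mitochondrial and cell markers, cytometer read.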
D2 ag – agonists of human D2 dopamine receptor (beta-arrestin). DiscoveRx PathHunter D2 beta-arrestin, luminescence, 90 min; 100% = 57 uM dopamine signal. activation, % (concentration not given with the values). 360,000 compounds, 0.084% hits. AID 624465; in the data active = activation above about 40%; inconclusive = about 15% to 40%; inactive = below about 15%; also: the text of the record calls up to 30% inactive
Target sequence (P14416 whole entry, looked up): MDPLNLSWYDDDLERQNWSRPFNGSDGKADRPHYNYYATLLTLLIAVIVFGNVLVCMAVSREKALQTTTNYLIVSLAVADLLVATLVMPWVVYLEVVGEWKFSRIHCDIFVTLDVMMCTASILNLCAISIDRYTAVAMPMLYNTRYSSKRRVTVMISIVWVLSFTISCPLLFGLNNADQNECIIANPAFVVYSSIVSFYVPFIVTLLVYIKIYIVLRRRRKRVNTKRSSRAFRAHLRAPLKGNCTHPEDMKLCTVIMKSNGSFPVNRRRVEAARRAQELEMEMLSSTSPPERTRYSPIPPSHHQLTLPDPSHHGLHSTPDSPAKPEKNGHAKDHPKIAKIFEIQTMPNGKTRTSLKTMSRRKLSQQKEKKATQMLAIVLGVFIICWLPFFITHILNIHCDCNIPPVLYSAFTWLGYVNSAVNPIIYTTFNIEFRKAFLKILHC
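DiscoveRx PathHunter D2 beta-arrestin cells (2,100/well) attached overnight, then compound-stimulated 90 min at 37 C in HBSS/10 mM HEPES/0.1% Tween-20 buffer; beta-galactosidase complementation read by luminescence after 1 h at ambient temperature. Dopamine 57 uM final (EC100) as control.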
gsp antag – antagonists of gsp mutant (McCune-Albright syndrome). Potency, µM (doses to about 76.9 µM), inactives show top-dose activity change, negative = inhibition, usual class: inhibitors. gsp-mutant cells, cAMP HTRF, 30 min; control for the full effect not named in the record. 340,000 compounds, 0.4% hits; active = falling curve of any shape with a large fitted effect; inconclusive = falling curve, mostly with a smaller effect; inactive = flat or rising curve; cell line not stated here;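 also: intracellular cAMP measured with PDE inhibitor Ro 20-1724 present during compound exposure; potency is read from the fitted curve at half-maximal effect; % is scaled to controls: 0 for no effect and ±100 for the full control effect; nearly all actives have a fitted effect of over 65% in size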
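HTRF cAMP measurement after 30 min RT detection following 30 min, 37C compound treatment alongside […] (added as 300 uM solution) in G418-selected cells seeded at 2000/well and grown 16–24 h.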
Starred values were filed as active, the others as inactive; ? = inconclusive; · = no result given; [ ] = remark or other dose.

SMILES	gsp agonist	Sfp PPTase inh	ClpP mod	Menin MLL FP FL	PINK1 expr mod	D2 ag	gsp antag
CSCCC(NC(=O)c1ccco1)C(=O)N1CCC(C(N)=O)CC1 (stereo not drawn)	30%	·	1.2%	·	-2.0%	3.8	10%
O=C(NCc1cccnc1)c1csc([C@@H]2O[C@H](CO)[C@H](O)[C@H](O)[C@H]2O)n1	·	·	1.8%	·	-0.7%	-1.9	·
CCN(C(=O)COC(=O)c1cc2c(s1)CCCCC2)C1CCS(=O)(=O)C1 (stereo not drawn)	2%	10%	0.4%	2.4	-1.2%	-4.2	10%
Cc1nc(=O)c(-c2ccccc2)c(C)n1-c1ccccc1Cl	2%	·	1.3%	·	-0.6%	1.7	3%
CC(=O)c1cccc(NC(=O)c2cccc(NC(=O)c3ccco3)c2)c1	-2%[15.4 µM]	17%	1.1%	-7.3	11%	0.0	4%
CCc1nc(CN2CCN(Cc3ccc(F)c(F)c3)C(CCO)C2)c(C)[nH]1 (stereo not drawn)	-24%	6%	-1.9%	-3.6	-0.4%	-2.7	8%
CC(=O)N[C@@H](Cc1c[nH]c2ccccc12)C(=O)OCC(=O)Nc1ccc2c(c1)OCO2	-23%	·	·	·	2.2%	-0.2	-12%
Fc1ccc(-n2cc(-c3ccccc3)c3c(N4CCOCC4)ncnc32)cc1	-11%[15.4 µM]	-14%	·	0.1	0.6%	?	?
CCCCNC(=O)C1CCCN1S(=O)(=O)c1cccc2nsnc12 (stereo not drawn)	9%[15.4 µM]	3%	·	5.6	1.0%	-0.5	5%
COCc1cc(C)nc(N2CCNCC2)c1C#N	-1%	-2%	16µM*	3.5	-2.2%	1.1	17%
Cc1ccc(NC(=O)CNC(=O)Cc2cccc3ccccc23)nc1	-10%	-5%	-4.4%	·	3.4%	-1.7	-2%
CC(C)(C)c1cc(C(=O)NNS(=O)(=O)c2ccccc2)n[nH]1	-14%	-10%	-0.7%	1.6	0.7%	-4.1	-5%
CCn1c(=NC(=O)CCS(=O)(=O)c2ccccc2)sc2cccc(OC)c21	16%	-6%	-23%	·	1.5%	0.2	?
Cc1nc2ccccc2c2nc(N)nn12	?	15%	?	-0.2	-0.1%	0.0	4%
Cn1cc(C2=C(c3cn(CCCSC(=N)N)c4ccccc34)C(=O)NC2=O)c2ccccc21	·	50µM*	1.3%	?	0.0%	·	·
CCN(C[C@H]1N[C@@](Cc2ccccc2)(C(=O)OC)[C@H]2C(=O)N(Cc3ccccc3)C(=O)[C@@H]12)C(=O)c1ccc(F)cc1	·	·	0.2%	·	2.8%	-3.1	-13%
Cc1cccc(-c2n[nH]c(=S)n2/N=C/c2cccs2)c1	-37%[inhibitor]	?	2.4%	-4.7	1.5%	-7.5	-14%
C#CC[N+]1(CC#Cc2ccccc2)CCCC1	-47%[inhibitor]	-10%	-5.4%	1.5	-1.0%	-2.1	3%
CC(C)(C)OC(=O)N1CCN(CCNC(=O)c2ccccc2)CC1	22%	9%	-0.6%	2.9	-2.2%	2.7	19%
Cn1c(=O)c2c(ncn2CC(=O)NC(C)(C)C)n(C)c1=O	30%	10%	0.7%	1.6	·	-1.3	0%
COc1ccc(CC(N)c2csc(Nc3ccc(S(C)(=O)=O)cc3)n2)cc1 (stereo not drawn)	·	·	-22%	·	-0.2%	4.6	·
Cc1ccc2nc3c(cc(C(N)=S)c(=N)n3CCCOC(C)C)c(=O)n2c1	22%	45µM*	22µM*	?	8.1%[38.3 µM]	-5.1	2%
CCOc1ccc2[nH]c(=O)c(CN(CCc3ccccc3)C(=O)c3cnccn3)cc2c1	-18%	5%	-6.5%	3.2	-1.1%	-3.7	-3%
OC1(c2ccccc2F)CCN(Cc2nnnn2Cc2ccc(F)cc2)CC1	-7%[15.4 µM]	18%	·	-2.5	-0.2%	-0.4	5%
CCCCOn1c(C)c(C(=O)OCC)c2c3nonc3ccc21	23%	·	18µM*	·	-2.2%	-1.8	-15%
Cc1cccc(NS(=O)(=O)c2cccc(C(=O)N3CCC3)c2)c1	12%	·	0.0%	·	-1.0%	-1.6	-4%
CCOc1ccccc1/C=N/N1CCN(Cc2ccccc2)CC1	-27%	-25%	-5.6%	0.0	3.7%	-4.2	1%
COC(=O)c1c(C(=O)OC)c(-c2ccccc2)n2c1CS(=O)C2 (stereo not drawn)	3%	11%	-3.3%	0.5	0.4%	1.1	9%
CCNc1nc(NCC)nc(OCCOC(=O)COc2ccc(Cl)cc2Cl)n1	-82%[inhibitor]	-30%	0.8%	-6.5	-0.4%	-3.1	-4%
COc1cc(C(=O)Oc2cc(C)[nH]c(=O)c2[N+](=O)[O-])cc(OC)c1OC	13%	5%	0.0%	-0.9	1.1%	-4.1	8%
Cc1ccc(CCC(=O)Nc2ncc(Cc3cccc(Cl)c3Cl)s2)o1	24%	13%	0.7%	0.7	13%	-1.4	30%
CC1CCN(Cc2ccc(-c3nn[nH]n3)cc2)CC1	-31%[inhibitor]	6%	-0.2%	3.5	-1.0%	-3.7	7%
CCCn1c(Cc2ccccc2)nnc1SC(C)C(=O)NC1CC1 (stereo not drawn)	20%	·	0.6%	·	1.7%	12	14%
O=C1OC(Nc2nc3ccccc3s2)c2ccccc21 (stereo not drawn)	-31%[inhibitor]	5%	2.0%	0.2	3.2%	-0.3	5%
CCOc1cc(/C=N/N=C2/NC(=O)C(CC(=O)O)S2)ccc1OS(=O)(=O)c1ccc(C)cc1 (stereo not drawn)	?	23%	·	1.0	1.7%	2.4	7%
Cc1cc2oc(=O)cc(CN3CCOCC3)c2cc1C	-4%	20%	-15%	-1.4	-0.8%[38.3 µM]	0.8	2%
COC(=O)c1sc(NC(=O)c2cc(C)on2)nc1C	11%	0%	-1.1%	1.3	1.8%	-0.7	-4%
Cc1ccc(C(=O)NCCNc2ccc(Cl)cc2[N+](=O)[O-])o1	?	-3%	2.8%	1.9	?	-4.2	-15%
C[C@H](CO)N1C[C@H](C)[C@H](CN(C)S(=O)(=O)c2cccs2)OCc2cnnn2CCCC1=O	-116%[inhibitor]	·	-0.5%	·	0.5%	-3.7	·
CCOc1ccc(-c2nnc(NC(=O)Cc3cc(OC)c(OC)c(OC)c3)o2)cc1	27%	-6%	-8.7%	9.1	3.4%	-3.8	-7%
COc1ccc(/C=N/NC(=O)c2cc[n+]([O-])cc2)cc1O	-1%	18%	·	-2.9	2.1%	-3.2	-11%
Cn1c(NC(=O)c2ccc(Br)o2)cc(=O)n(C)c1=O	5%	8%	-3.0%	-1.7	-0.5%	1.6	-1%
O=C(Nc1ccc(C(=O)O)cc1)/C(=C\c1ccco1)NC(=O)c1ccc(Br)o1	1%[15.4 µM]	50µM*	1.7%	8.5	3.3%	-0.6	-9%
COC(=O)C1=C(C)N(CC2CCCO2)C(=O)/C1=C\c1ccc(O)cc1 (stereo not drawn)	-17%	-29%	-3.0%	3.6	1.3%	-2.3	-6%
COc1nc(NCCc2ccc(OC)c(OC)c2)nc(NC(C)(C)CO)n1	-16%	18%	0.0%	1.6	14%[38.3 µM]	-1.6	-9%
Cc1ccc(S(=O)(=O)N2CCN(S(=O)(=O)c3cccs3)CC2)cc1	7%[15.4 µM]	5%	-0.1%	·	4.6%	-2.6	13%
Clc1ccc(C(Cn2ccnc2)OCc2c(Cl)cccc2Cl)c(Cl)c1 (stereo not drawn)	·	·	-0.9%	·	8.1%	10	-7%
Cc1nn(Cc2ccccc2)c(C)c1NC(=O)CSc1n[nH]c(C)c1[N+](=O)[O-]	0%[15.4 µM]	-5%	1.4%	6.3	3.0%	-4.3	-12%
Cn1c(=O)c2sccc2n2c(CCCC(=O)NCCc3ccc(S(N)(=O)=O)cc3)nnc12	52%[15.4 µM]	20%	·	-1.6	2.0%	-3.2	2%
c1ccc2[nH]c(CN3CCOCC3)nc2c1	-1%	10%	-0.3%	0.2	·	-4.9	3%
COc1cccc(NC(=O)Nc2cc(C(=O)NCC3CCCO3)ccc2N2CC3CC(C2)c2cccc(=O)n2C3)c1 (stereo not drawn)	?	3%	-0.5%	·	0.0%	-3.0	-2%
CCn1c(SCC(=O)Nc2nccs2)nnc1-c1ccncc1	0%	2%	0.2%	1.0	-1.2%	-2.7	5%
O=C(Nc1ccc(Cl)cc1)N1CCOC12CCCCC2	?	23%	0.9%	-2.9	0.1%	-7.8	7%
CCCc1cc(=O)oc2cc(C)cc(OCC(=O)NCc3ccccn3)c12	?	18%	4.0%	-1.4	-0.7%	0.2	-3%
Cc1ccc(NS(=O)(=O)c2ccc(C(=O)NCc3cccnc3)cc2)cc1	-41%[inhibitor]	-7%	4.0%	·	0.3%	0.4	-4%
CC1(C(=O)NS(=O)(=O)Cc2ccccc2)CCN1C(=O)Cc1ccc(-c2ccccc2)cc1 (stereo not drawn)	·	·	0.3%	·	0.9%	-5.3	·
CS(=O)(=O)NCCSCc1ccco1	-4%	-13%	-1.5%	3.8	·	-1.0	3%
CS(=O)(=O)c1ccc2nc(NC(=O)c3cc([N+](=O)[O-])cc([N+](=O)[O-])c3)sc2c1	-15%	-21%	2.3%	-6.2	-0.2%	?	-7%
CC12CCC(C(=O)NCc3ccccc3Cl)(C(Br)C1=O)C2(C)C (stereo not drawn)	7%	-17%	-0.5%	0.8	11%	2.6	-3%
COCCOC(=O)C1=C(C)Nc2ncnn2C1c1ccccc1 (stereo not drawn)	?	-4%	-0.2%	3.4	46%[38.3 µM]	-2.6	17%
C=CCc1cccc(CNc2ccc(Br)cc2)c1O	5%	6%	0.2%	-4.4	15%	2.3	-10%

Entries of single compounds, looked up by structure. Values in the order: gsp agonist | Sfp PPTase inh | ClpP mod | Menin MLL FP FL | PINK1 expr mod | D2 ag | gsp antag
CS(=O)(=O)c1ccc2nc(NC(=O)c3cc([N+](=O)[O-])cc([N+](=O)[O-])c3)sc2c1 reads -15% | -21% | 2.3% | -6.2 | -0.2% | ? | -7%
Fc1ccc(-n2cc(-c3ccccc3)c3c(N4CCOCC4)ncnc32)cc1 reads -11%[15.4 µM] | -14% | · | 0.1 | 0.6% | ? | ?
